Compound activity from PubChem.
PMP22 txn = Cell-based coincidence reporter assay to measure PMP22 gene transcription in S16 Pmp22-F2sN cells - Primary screen; S16 Pmp22-F2sN Schwann cells (luciferase reporters placed in the Pmp22 gene), FLuc/NLuc coincidence luminescence, 24 h; Potency, µM (titrated, usually from 57.5 µM), for the others: at the top dose activity change, negative = inhibition, usual class: inhibitors; actives 2% (n = 43,000); AID 1508649, 2021; active = clear falling dose curves in both reporters; inconclusive = both reporters move, but less clearly or upward; inactive = either reporter flat; the % is the NLuc reporter signal; note: % is set by controls: 0 for no effect and ±100 for the full control effect; some results filed as inactive show a strong effect at the top dose
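S16(c9) Schwann cells with FLuc/NLuc coincidence reporter in the Pmp22 3' UTR; compounds pin-transferred, 24 h at 37C. Dual-luciferase read: FLuc first, then NLuc after Stop&Glo, each 10 min at room temperature.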
HTT promoter inh = Primary qHTS for Identification of Small Molecule Inhibitors of Huntingtin Promoter Activity | AID 1508623, 2021 | HEK293 HTT promoter firefly luciferase reporter (activity 0% = vehicle and -100% = no light), 24 h | Potency, µM (series often up to 57.5 µM), for inactives: at the highest dose activity change, negative = inhibition, usual class: inhibitors | actives 0.93% (n = 48,000); active = well fitted inhibition curve with a large enough effect; inconclusive = small, poorly fitted or top-dose-only effect; inactive = no such curve, though single readings can be large or run the other way; note: nearly all actives have a fitted effect of over 50% in size
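HEK293 Fluc reporter, 2,500 cells/well, 24 h pre-culture; cpds up to 57.5 uM final, 24 h 37 degrees C; Dual-Glo, 10 min RT; normalized vehicle = 0%, zero RLU = -100%.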
Active calls of the source: *; ? = inconclusive; / = no result given; [ ] = remark or other dose. Potency is the fitted concentration of half-maximal effect.

| SMILES | HTT promoter inh | PMP22 txn |
| --- | --- | --- |
| COc1ccccc1CNC(=O)CCCCn1c(=O)c2ccccc2n(CC(=O)Nc2c(C)cc(C)cc2C)c1=O | 22% | -1% |
| Cc1ccc(NC(=O)Cc2ccc(-n3c(C)nc4cccnc43)cc2)cc1C | ? | ? |
| COc1ccc(C(=O)Nc2ccc3nc4n(c(=O)c3c2)CCCCC4)cc1OC | -5% | ? |
| O=C(Nc1cc(F)ccc1F)N1CCC(CN2CCCC2)CC1 | -18% | -8% |
| Cc1cc(C)c(NC(=O)C2CCN(c3nc4ccccc4[nH]3)CC2)c(C)c1 | 3% | -16% |
| O=C(NCCS(=O)(=O)c1ccc(C(F)(F)F)cn1)c1ccc(Cl)cc1 | 0% | / |
| CCn1c(C(=O)NCc2ccccc2C)cc2oc3ccccc3c21 | ? | -6% |
| Cc1ccc(CNC(=O)C(=O)NCC(c2cccs2)S(=O)(=O)c2ccc(C)cc2)cc1 (centres undefined) | -47% | -26% |
| CCOc1ccc(S(=O)(=O)N2CCN(c3cccc(C(F)(F)F)c3)CC2)cc1OCC | -31% | -4% |
| CCc1ccccc1NC(c1nnc(-c2cccc(F)c2)o1)c1ccc(F)cc1Cl (centres undefined) | -24% | -8% |
| CN(C(Cc1ccc(OS(=O)(=O)c2cccc3cnccc23)cc1)C(=O)N1CCN(c2ccccc2)CC1)S(=O)(=O)c1cccc2cnccc12 (centres undefined) | ? | / |
| Cc1cc(Nc2ccccc2C)c2cccc(C)c2n1 | -11% | ? |
| COc1ccc(/C=C(/C#N)c2nc(-c3cc4ccccc4oc3=O)cs2)cc1 | -2% | ? |
| Cc1ccccc1CSc1nc2c([nH]c3ccccc32)c(=O)n1-c1ccccc1 | -19% | -16% |
| CCc1ccccc1NC(=O)Cn1c(=O)n(Cc2ccc(OC)cc2)c(=O)c2oc3ccccc3c21 | 7% | -23% |
| COc1ccccc1N1CCN(S(=O)(=O)CCNC(=O)C2CC(=O)N(c3ccccc3)C2)CC1 (centres undefined) | ? | -73% |
| CSc1cccc(NC(=O)c2cccc(N3CCCS3(=O)=O)c2)c1 | 47%[activator] | ? |
| Cc1ccccc1Nc1cc(C(=O)NCCCN2CCN(c3cccc(Cl)c3)CC2)c2ccccc2n1 | -18% | ? |
| CCN(CC)c1ccc(NC(=O)Cn2nc(C)n3cccc3c2=O)c(C)c1 | -6% | -17% |
| COC(=O)c1ccc2c(=O)n3nc(Nc4cc(OC)ccc4OC)sc3nc2c1 | -9% | -11% |
| Cc1ccc(CN2CCSc3ccc(C(=O)N4CCN(c5ccccc5)CC4)cc32)cc1 | -10% | ? |
| Cc1ccc(CS(=O)(=O)c2cn(CC(=O)N(C)c3ccccc3)c3ccccc23)cc1 | ? | ? |
| COC(=O)c1ccccc1NC(=O)Cn1ncc2c(C)n(Cc3ccc(F)cc3)c(C)c2c1=O | ? | ? |
| Cc1cc(-c2ccc(C)c(S(=O)(=O)N(C)c3ccc(C)c(C)c3)c2)on1 | ? | ? |
| Nc1c(-c2nc(-c3ccccc3)no2)nnn1CC(=O)Nc1cccc(F)c1 | -5% | ? |
| COc1ccc(N2CCN(C(=O)C(CC(C)C)NS(=O)(=O)c3ccc4nc(C)sc4c3)CC2)cc1 (centres undefined) | -21% | -6% |
| COc1ccc(-c2nc3c(c(SCC(=O)N(C)c4ccccc4)n2)Cc2cc(C)ccc2O3)cc1 | -13% | ? |
| CNC(=O)c1ccc2c(c1)N(Cc1cc(C)ccc1C)C(=O)c1ccccc1S2 | -23% | -1% |
| O=C(Nc1ccc2c(c1)CCCN2C(=O)c1cccs1)c1c(F)cccc1F | ? | -10% |
| O=C(CSc1nc(=O)[nH]c2c1CCC2)NCc1ccccc1Cl | -4% | -9% |
| CCN(C(=O)c1cc2c(s1)-c1c(C)cccc1OC2)c1cc(C)ccc1C | -20% | 1% |
| Cc1ccc(NC(=O)Cn2nnc3sc4c(c3c2=O)CCCC4)c(C)c1 | -1% | -30% |
| CC(C)CNC(=O)Nc1cc(C(=O)NCc2ccc(C(C)C)cc2)ccc1N1CCCC1 | ? | -34% |
| Cc1ccc(C)c(N2CCN(c3nc4ccc(C(=O)c5ccccc5)cc4n4cnnc34)CC2)c1 | -13% | -12% |
| CS(=O)(=O)c1ncc(Cl)c(C(=O)Nc2c(C(=O)Nc3ccccc3)oc3ccccc23)n1 | -13% | ? |
| O=C1CC(c2ccc(Cl)cc2)Sc2nc(-c3ccc(F)cc3)nn21 (centres undefined) | -9%[11.5 µM] | -6% |
| COc1ccc(Nc2cc(C(=O)NCCCN(C)C3CCCCC3)c3ccccc3n2)c(OC)c1 | -25% | ? |
| CCOc1ccccc1CNC(=O)C1CCN(S(=O)(=O)c2c(C)noc2/C=C/c2ccc(C)cc2)CC1 | -23% | -10% |
| CC(C)c1ccc(-c2noc(SCC(=O)N3CCCCC3)n2)cc1 | -4% | ? |
| Cc1ccc(NC(=O)CCn2c(=O)c3cccn3c3ccccc32)cc1Cl | -25% | ? |
| CC(=O)c1cc(-c2ccccc2)n(CCC(=O)Nc2ccc(C)cc2C)c1C | -24% | -3% |
| CCc1ccccc1NC(=O)Cn1c(=O)n(CCCCCC(=O)NCc2ccc(C)cc2)c(=O)c2sccc21 | -23% | ? |
| CCc1ccccc1NC(=O)Nc1c(C)n(C)n(-c2ccccc2)c1=O | -15% | 3% |
| CCN(CC)C(=O)CSc1nc2cc3c(cc2c(=O)n1CCCCCC(=O)NCCc1ccc(OC)c(OC)c1)OCO3 | -18% | ? |
| CCOC(=O)C1CCCN(c2ncnc3c2nnn3C)C1 (centres undefined) | 0% | -30% |
| CCOc1ccc(C(=O)c2c(N)c(-c3nc(-c4ccc5c(c4)OCO5)cs3)c3ccccn23)cc1 | -1% | 63% |
| COc1ccc2c(c1)Cc1sc(NC(=O)c3ccc(Cl)cc3)nc1-2 | ? | ? |
| CNC(=O)C1CCCN(c2nnc(C)c3c(C)n(-c4ccccc4)nc23)C1 (centres undefined) | -6% | -9% |
| CCCOc1ccc(C(=O)Nc2c(C(=O)c3ccc(C)cc3)oc3ccccc23)cc1 | -4% | -27% |
| CCOc1ccc(-n2c(=O)c3sc4ccccc4c3n(Cc3ccc(F)cc3)c2=O)cc1 | -4% | -31% |
| CCOc1ccc2nc(NC(=O)c3ccccc3)sc2c1 | 31%[activator] | ? |
| COc1ccc(C(=O)CCC(=O)Nc2cccc(C(C)=O)c2)cc1 | 11% | -21% |
| COc1ccc(-c2nc(CSCC(=O)N3CCN(c4ccc(OC)cc4)CC3)c(C)o2)cc1 | ? | ? |
| CC(=O)N1CCc2cc(S(=O)(=O)NC(CC(C)C)C(=O)NCCc3cccc(C)c3)ccc21 (centres undefined) | -5% | -4% |
| COc1cccc(OCC(=O)NC2CC(=O)N(c3cccc(OC)c3)C2)c1 (centres undefined) | -6% | -2% |
| COc1cc(-c2noc(-c3ccc(N4CCN(C)CC4)c([N+](=O)[O-])c3)n2)cc(OC)c1OC | -5% | -7% |
| CCC(CC)c1nn2cc(-c3ccccc3)nc2s1 | ? | -3% |
| CCN(CCCNC(=O)c1cc2cc3cc(OC)ccc3nc2s1)c1cccc(C)c1 | 1% | ? |
| Cc1nc(-n2nc(C)c(Cc3ccccc3Cl)c2C)sc1C(=O)N1CCCCC1C (centres undefined) | -6% | ? |
| Cc1ccc(NC(=O)c2cc(S(=O)(=O)NCCC3=CCCCC3)ccc2F)cc1F | 11µM* | ? |

(cont.)
| SMILES | HTT promoter inh | PMP22 txn |
| --- | --- | --- |
| Cc1ccc(CNC(=O)Nc2cc(C(=O)NCc3cccc(F)c3)ccc2N2CCCC2)cc1 | ? | 6% |
| CC(C)(C)OC(=O)N1CCc2nc(N3CCN(c4ncccn4)CC3)ncc2C1 | 17% | -12% |
| COc1ccc(CCNC(=O)c2cc3c(s2)-c2c(C)cccc2OC3)c(OC)c1 | -27% | -11% |
| Cc1ccc(-n2ncc(C(=O)N3CCN(c4ccc(Cl)cc4)CC3)c2C2CCN(C(=O)OC(C)(C)C)CC2)c(C)c1 | -11% | ? |
| CCN(CC)C(=O)C1CCN(c2nnc(C)c3c(C)n(-c4ccc(Cl)cc4)nc23)CC1 | -11% | 3% |
| O=C(NCc1ccc(F)cc1)c1ccc2c(c1)nnn2C1CCCC1 | -8% | -83% |
| CCOC(=O)C1CCN(C(=O)c2nn(-c3ccc(OC)c(Cl)c3)c(=O)c3c2c2ccccc2n3C)CC1 | 9% | ? |
| COC(=O)c1ccccc1NC(=O)C(Cc1ccccc1)N1Cc2ccccc2C1=O (centres undefined) | -13% | ? |
| CCOc1ccccc1CNC(=O)c1ccc(NC(=O)N2CCSc3ncccc32)cc1 | ? | ? |
| Cc1cccc(N2CCN(c3ncnc4c3c(-c3ccccc3)cn4-c3ccccc3)CC2C)c1 (centres undefined) | -18% | 2% |
| Cc1cc(C)cc(NC(=O)Cn2c(=O)n(Cc3ccco3)c(=O)c3oc4ccccc4c32)c1 | -26% | ? |
| Cc1cc(C)cc(NC(=O)C(NS(=O)(=O)c2cccc3nsnc23)c2ccccc2)c1 (centres undefined) | -30% | -3% |
| CC(C)CCNC(=O)c1c2c(nc3ccccc13)C(=O)N(C1CCCCC1)C2 | -22% | ? |
| CC1CN(C(=O)CCC(=O)NCc2cccs2)c2ccccc2O1 (centres undefined) | -19% | -6% |
| C=Cc1ccc(Cn2c(C(=O)O)c(CNC3CCCC3)c3ccc(C)cc32)cc1 | -9% | -1% |
| Cc1nc(N2CCCC2)c2c(C(=O)N3CCN(c4cccc(Cl)c4)CC3)c(C)oc2n1 | ? | -10% |
| CCCC(=O)Nc1cccc(OCc2cc(=O)n3cccc(C)c3n2)c1 | 8% | -9% |
| CCCOC(=O)CSc1nnc2ccc3ccccc3n12 | -2% | -1% |
| Cc1c(C)n(Cc2ccccc2)c2ccc(C(=O)NCc3ccco3)cc12 | -5% | -55% |
| COc1ccc(NC(=O)CSc2nc3c(oc4ccccc43)c(=O)n2Cc2ccco2)cc1Cl | ? | ? |
| CCOC(=O)C1CCN(C(c2ccc(SC)cc2)c2c(O)cc(C)n(Cc3ccco3)c2=O)CC1 (centres undefined) | 0% | -70% |
| Cc1cccc(C)c1OCC(=O)N(Cc1ccccc1F)C1CCS(=O)(=O)C1 (centres undefined) | -6% | -35% |
| Cc1nn(CCCC(=O)NCc2cccc(Cl)c2)c(=O)c2c1sc1ccccc12 | 1% | -5% |
| CCc1ccc(Sc2cc(C(=O)O)c3ccccc3n2)cc1 | 1% | 1% |
| Cc1cc(C)cc(NC(=O)C2CCN(S(=O)(=O)c3cccc(-c4noc(C)n4)c3)CC2)c1 | ? | ? |
| Cc1ccccc1CNC(=O)CCc1cn(Cc2ccccc2C)c2ccccc12 | ? | -22% |
| Cc1ccc(-c2onc(C)c2C)cc1S(=O)(=O)NCc1ccc(N(C)C)cc1 | -24% | ? |
| COC(=O)C=CC(=O)OC | ? | / |
| COc1ccc(N2CCN(c3ncnc4c3cnn4C)CC2)cc1 | ? | ? |
| CCC12CN3CC(C)(CN(C1)C3c1c[nH]c3ccccc13)C2=O (centres undefined) | -16% | ? |

Brought forward from above: six compounds, then new ones.
| SMILES | HTT promoter inh | PMP22 txn |
| --- | --- | --- |
| Cc1cc(C)cc(NC(=O)C2CCN(S(=O)(=O)c3cccc(-c4noc(C)n4)c3)CC2)c1 | ? | ? |
| Cc1ccccc1CNC(=O)CCc1cn(Cc2ccccc2C)c2ccccc12 | ? | -22% |
| Cc1ccc(-c2onc(C)c2C)cc1S(=O)(=O)NCc1ccc(N(C)C)cc1 | -24% | ? |
| COC(=O)C=CC(=O)OC | ? | / |
| COc1ccc(N2CCN(c3ncnc4c3cnn4C)CC2)cc1 | ? | ? |
| CCC12CN3CC(C)(CN(C1)C3c1c[nH]c3ccccc13)C2=O (centres undefined) | -16% | ? |
| CCCCCn1c(CN2CCN(c3ccc(OC)cc3)CC2)nc2c1c(=O)[nH]c(=O)n2C | -19% | ? |
| O=C(Nc1ccc(F)cc1)C1CCCN(c2ncnc3c2nc2n3CCCCC2)C1 (centres undefined) | ? | -13% |
| Cc1ccccc1NC(=O)c1ccccc1NC(=O)c1ccccc1Cl | 13% | 28% |
| CC(=O)N1CCc2cc(S(=O)(=O)NC(Cc3ccccc3)C(=O)NCc3ccc(C)cc3)ccc21 (centres undefined) | -27% | 49% |
| CCOc1ccc(NC(=O)C(CC)n2nc(C)c3c(C)n(-c4ccccc4)nc3c2=O)cc1 (centres undefined) | ? | 9% |
| Cc1c(Cl)cccc1-n1ncc(C(=O)NC2CCCCC2)c1C1CCN(C(=O)OC(C)(C)C)CC1 | -17% | ? |
| O=C(COc1ccc(Cl)cc1)N(Cc1ccco1)Cc1ccco1 | ? | ? |
| CCc1ccc(-n2c(=O)c3sc4ccccc4c3n(Cc3cccc(F)c3)c2=O)cc1 | -19% | ? |
| Cc1cccn2c(=O)cc(COc3ccc(NC(=O)C(C)Oc4ccccc4)cc3)nc12 (centres undefined) | -25% | ? |
| CCOC(=O)N1CCN(Cc2nc3cc([N+](=O)[O-])ccc3n2C(C)C)CC1 | ? | ? |
